Marburg entry inh – qHTS for inhibitors of binding or entry into cells for Marburg Virus; 300,000 compounds, 1.8% hits; Potency, µM (doses to about 37.8 µM), for inactives: top-dose activity change, negative = inhibition, actives largely listed as inhibitors; Marburg virus pseudotyped entry inhibition, cell reporter; control for the full effect not named in the record; about a third of the inactives were read at about 46 µM; active = well fitted inhibition curve with a large enough effect; inconclusive = small, poorly fitted or top-dose-only effect, or effect the other way; inactive = flat fitted curve, though single readings scatter; tested in HEK293 cells; about a fifth of its hits are not listed in these tables; also: % is scaled to controls: 0 for no effect and ±100 for the full control effect; luciferase read-out
SARS PLP yeast – qHTS of Yeast-based Assay for SARS-CoV PLP | S. cerevisiae expressing SARS-CoV PLpro, growth rescue; control for the full effect not named in the record | Potency, µM (series often up to 32.9 µM), inactives show top-dose activity, positive = growth rescue | 330,000 compounds, 0.19% hits | AID 485353, 2010; active means well fitted rising curve with a large enough effect; inconclusive means small, poorly fitted or top-dose-only effect; inactive means no such curve, though single readings can be large or run the other way; also: 0% is about no effect; nearly all actives have a fitted effect of over 55% in size; growth read by luminescence after 48 h
NS1 function inh – qHTS Assay for Inhibitors of Influenza NS1 Protein Function. S. cerevisiae slowed by influenza A NS1, growth recovery by OD600. Potency, µM (doses to about 46.1 µM), for the others: at the top dose activity, positive = more growth. 270,000 compounds, 0.4% hits. AID 2326, 2010; active means well fitted rising curve with a large enough effect; inconclusive means small, poorly fitted or top-dose-only effect; inactive means no such curve, though single readings can be large or run the other way; also: nearly all actives have a fitted effect of over 50% in size
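Compounds were scored for reversing the slow growth caused by influenza A NS1 in S. cerevisiae, measured by optical density at 600 nm. Assay medium contained 2% galactose at pH 6.0; NS1-free yeast of the same strain were the positive control.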
2A StopGo – High Throughput Screening for Foot and Mouth Disease Virus Antivirals | human cells with a luciferase reporter of 2A StopGo recoding; control for the full effect not named in the record | AID 1159524, 2015 | Potency, µM (series often up to 57.9 µM), for inactives: top-dose signal change, negative = less light | 410,000 compounds, 1.2% hits; active = well fitted falling curve with a large enough effect; inconclusive = small, poorly fitted or top-dose-only effect; inactive = no such curve, though single readings can be large or run the other way; tested in HEK293T cells; also: % is scaled to controls: 0 for no effect and ±100 for the full control effect; nearly all actives have a fitted effect of over 45% in size; luciferase light after 4 h
RE007 growth inh – qHTS Assay for Inhibitors of the HIV-1 protein Vpr; S. pombe RE007 Vpr strain, BacTiter-Glo ATP luminescence, 24 h; control for the full effect not named in the record; Potency, µM (highest dose often 92.2 µM), for inactives: at the highest dose activity change, negative = less growth; 360,000 compounds, 0.21% hits; active = well fitted falling curve with a large enough effect; inconclusive = small, poorly fitted or top-dose-only effect; inactive = no such curve, though single readings can be large or run the other way;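 also: % is scaled to controls: 0 for no effect and ±100 for the full control effect; nearly all actives have a fitted effect of over 50% in size; the assay follows cell death caused by Vpr and the record does not say whether a fall means rescue or toxicity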
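Fission yeast RE007 carrying one integrated HIV-1 vpr copy, seeded at OD 0.01 in PMG+AL medium with 23 nL pinned compound. Grown 24 h at 30 degrees; viability read by BacTiter-Glo luminescence after 5 min.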
Cruzain inh noDet – qHTS Assay for Promiscuous and Specific Inhibitors of Cruzain (without detergent); Potency, µM, for inactives: max response, negative = inhibition, most hits filed as inhibitors; 200,000 compounds, 2.3% hits; purified cruzain, Z-FR-AMC fluorescence, no detergent; Cruzipain (Trypanosoma cruzi), P25779;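 also: plate controls were enzyme without inhibitor for no effect and buffer without enzyme for full effect; nearly all actives have a fitted effect of over 40% in size; top concentration of the series not given in the record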
Target sequence (P25779 123-467 limits assumed): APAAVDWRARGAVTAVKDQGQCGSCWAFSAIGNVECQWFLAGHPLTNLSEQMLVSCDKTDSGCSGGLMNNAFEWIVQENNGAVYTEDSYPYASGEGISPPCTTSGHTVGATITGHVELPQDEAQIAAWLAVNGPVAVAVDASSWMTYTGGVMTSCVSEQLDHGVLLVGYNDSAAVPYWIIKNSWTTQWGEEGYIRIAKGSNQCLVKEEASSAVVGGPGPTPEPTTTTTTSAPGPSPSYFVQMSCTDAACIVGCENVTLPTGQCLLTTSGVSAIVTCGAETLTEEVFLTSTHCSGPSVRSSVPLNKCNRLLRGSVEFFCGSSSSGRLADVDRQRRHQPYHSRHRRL
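Purified cruzain at 1.5 nM, pre-incubated 15 min with compound at room temperature in 100 mM sodium acetate pH 5.5, 5 mM DTT, 0.00005% Triton X-100. Reaction started with 2 uM Z-FR-AMC; AMC fluorescence increase over 60 s gives rate.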
LASV entry inh – qHTS for Inhibitors of binding or entry into cells for Lassa Virus | AID 540256, 2011 | Lassa virus pseudotype entry inhibition, cell reporter; control for the full effect not named in the record | 300,000 compounds, 1.2% hits | Potency, µM (highest dose often 37.9 µM), inactives show at the highest dose activity change, negative = inhibition, most hits filed as inhibitors; active means well fitted inhibition curve with a large enough effect; inconclusive means small, poorly fitted or top-dose-only effect, or effect the other way; inactive means flat fitted curve, though single readings scatter; tested in HEK293 cells; also: % is scaled to controls: 0 for no effect and ±100 for the full control effect; nearly all actives have a fitted effect of over 50% in size; luciferase read-out
Cruzain inh Det – qHTS Assay for Promiscuous and Specific Inhibitors of Cruzain (with detergent) | AID 1478, 2009 | 200,000 compounds, 0.43% hits | Potency, µM, without a hit: max response, negative = inhibition, actives largely listed as inhibitors | Cruzipain (Trypanosoma cruzi), P25779 | purified cruzain, Z-FR-AMC fluorescence, 0.01% Triton;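 also: plate controls were neutral wells for no effect and buffer without enzyme for full effect; nearly all actives have a fitted effect of over 40% in size; top concentration of the series not given in the record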
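Detergent-containing arm of a paired screen for aggregation-based inhibition: 0.01% Triton X-100 present. Cruzain at 1.5 nM cleaved 2 uM Z-FR-AMC at pH 5.5 with 5 mM DTT; AMC fluorescence gain over 60 s measured activity.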
* hit, by the source's call; ? = inconclusive; . = not tested or not shown; & = joins results of further samples; [ ] = remark or other dose. Unless noted, calls follow the shape of the dose curve; as a rule, active = well fitted curve in the direction sought with a large enough effect; inconclusive = small, poorly fitted or top-dose-only effect, or another doubt; inactive = no such curve, though single readings can be large; an effect the other way counts as inactive or inconclusive. Potency is read from the fitted curve at half-maximal effect. Rows were taken by chance; overall some 4.5% were active at least once.

SMILES	Marburg entry inh	SARS PLP yeast	NS1 function inh	2A StopGo	RE007 growth inh	Cruzain inh noDet	LASV entry inh	Cruzain inh Det
COc1ccccc1C1NC=C([N+](=O)[O-])C=C1[N+](=O)[O-] (configuration not stated)	?	3%	20%	?	-1%	-8%	-3%	-11%
CCS(=O)(=O)N1CCc2cc(C(=O)Nc3ccc(C)c(Cl)c3)ccc21	4%[46.1 µM]	.	.	-4%	.	-15%	-4%[46.1 µM]	-2.1%
Cc1cc(NC(=O)c2cccc(F)c2)no1	13%	4%	-9%	31%[activator]	-2%	11%	1%	3.1%
COc1ccc(/C(O)=C2/C(=O)C(=O)N(CCN3CCOCC3)C2c2ccccn2)cc1 (configuration not stated)	2%[46.1 µM]	8%	8%	43%[activator]	-1%	-3%	22%	-3.5%
COc1ccc2nc(NC(=O)CN3CCOCC3)sc2c1	?	-9%	-4%	37%[activator]	-3%	2%	4%	0.5%
CC1(C)CC(=O)c2c(Cc3ccccc3)n[nH]c2C1	-22%	-7%	-16%	-18%	18%	2%	1%	1.9%
C/C=C(/C)C(=O)O[C@H]1[C@@H](O)c2c(ccc3ccc(=O)oc23)OC1(C)C	-21%	-5%	-10%	-15%	-17%	-4%	0%	-2.5%
C[C@H]1C(=O)N(C)CCN1C(=O)c1cccc(OC2CCN(CC(C)(C)C)CC2)c1	.	0%	-11%	-9%	9%	.	.	.
CN(C)CCNC(=S)Nc1ccc(Cl)cc1Cl	?	-13%	6%	35%[activator]	14%	-11%	10%	-3.6%
O=C(c1cc2ccccc2s1)N1CCN(c2ccccn2)CC1	26%[46.1 µM]	6%	-24%	-3%	-20%	.	15%[46.1 µM]	.
CCCCN(C(=O)c1ccc(S(=O)(=O)N2CCC(C)CC2)cc1)C1CCS(=O)(=O)C1 (configuration not stated)	?	2%	.	2%	?	.	2%	.
COc1ccc(S(=O)(=O)Nc2cccc(-c3ccc(N4CCCCCC4)nn3)c2)c(OC)c1	.	-3%	-25%	30%&54%	5%	?	-29%[46.1 µM]	-7.2%
COc1ccc(C(=O)C2CCCN(C(=O)Cc3c(C)noc3C)C2)cc1OC (configuration not stated)	5%[46.1 µM]	0%	-2%	27%	3%	.	0%	.
Cc1cc(C)n2nc(C(=O)Nc3ccc4c(c3)OCO4)cc2n1	-26%	-7%	-7%	26%	15%	-5%	?	5.0%
O=c1cc2c(n[nH]1)-c1ccccc1CC2	.	3%	3%	-9%	-9%	.	.	.
N#CC(c1ccccc1)c1ccc(=O)[nH]n1 (configuration not stated)	?	1%	0%	-12%	37%	.	0%[46.1 µM]	.
COc1ccccc1NC(=S)NCc1ccccc1Cl	1%	13%	-9%	39%[activator]	-2%	.	-2%	.
Cc1c2cnn(CC(=O)Nc3cccc(C(F)(F)F)c3)c(=O)c2c(C)n1Cc1ccccc1Cl	?	.	.	-1%	.	?	19%[46.1 µM]	-4.4%
O=C(CC1C(=O)NCCN1Cc1cccc(Oc2ccccc2)c1)NCCn1cccn1 (configuration not stated)	.	-2%	1%	-15%	-3%	.	.	.
O=C(Nc1ccccc1)c1cccc(C(=O)Nc2ccccc2)n1	-1%[46.1 µM]	3%	12%	-6%	-4%	.	0%[46.1 µM]	.
C[N+]1(CC2COC3(CCCCC3)O2)CCCC1 (configuration not stated)	-2%	-20%	13%	-10%	-2%	-3%	3%	-0.2%
COc1ccc(C(=O)c2ccc(OC)cc2OC)cc1	?	-1%	-2%	0%	21%	.	?	.
CN1CCSc2ccc(C(=O)NCc3ccccc3)cc21	?	-1%	4%	41%&63%[activator]	-17%	-8%	10%[46.1 µM]	-0.1%
CC(=O)Nc1ccc(-c2ccc(NC(C)=O)c(O)c2)cc1O	.	1%	1%	68%[activator]	16%	.	.	.
CC(C(=O)N1CCOCC1)N1C(=O)c2cccc3cccc(c23)C1=O (configuration not stated)	.	0%	5%	4%	43%	.	.	.

(cont.)
SMILES	Marburg entry inh	SARS PLP yeast	NS1 function inh	2A StopGo	RE007 growth inh	Cruzain inh noDet	LASV entry inh	Cruzain inh Det
O=C(Cc1ccccc1)NCC(=O)N/N=C/c1cccs1	19%[46.1 µM]	-5%	11%	-11%	5%	.	0%[46.1 µM]	.
O=C(O)c1ccc(Cl)c(S(=O)(=O)N2CCC(Cc3ccccc3)CC2)c1	5%	-2%	-10%	10%	7%	.	27%	.
Clc1ccccc1NC1=NCCCS1	2%[46.1 µM]	-6%	1%	9%	-8%	.	2%	.
Cc1cccc(N(C)S(=O)(=O)c2c(C(=O)N3CCCCCC3)c(C)n(C)c2C)c1	.	.	.	8%	.	?	0%[46.1 µM]	-2.9%
CCN=C1S/C(=C\c2sccc2C)C(=O)N1CC	16%[46.1 µM]	3%	-11%	43%[activator]	-11%	-2%	17%	-7.4%
Cc1ccc(N(CC(=O)N2CCOCC2)S(=O)(=O)c2ccccc2)cc1	16%	-5%	0%	31%[activator]	0%	-3%	11%	3.2%
O=C(C1=C(O)C(=O)N(CCOCCO)C1c1cccc([N+](=O)[O-])c1)c1cccs1 (configuration not stated)	?	1%	9%	8%	-5%	.	0%	.
CN(C)CCN(Cc1ccco1)C(=O)c1oc2ccccc2c1NC(=O)c1cccc(F)c1	.	.	.	?	.	9%	?	0.9%
CCOc1ccc(-c2c(C)nn3c(C)c(C(=O)NCc4ccc(C)o4)cnc23)cc1OCC	.	.	.	0%	.	-6%	-5%[46.1 µM]	-3.3%
Cc1ccc(C2CC(c3cccs3)n3nc(N)nc3N2)cc1 (configuration not stated)	5%&5%	1%	15%	10%	-3%	2%	-9%	7.8%
Oc1ccccc1-c1cc(C(F)(F)C(F)F)nc(-c2ccccc2)n1	-30%	4%	-5%	0%	8%	?	?	-0.6%
C/C=C/C=[N+](\[O-])C(C)/C(=N/O)c1ccc(F)cc1 (configuration not stated)	11%	0%	9%	5%	3%	-2%	0%	1.7%
CCCc1ccc(C(=O)O/N=C(\N)c2ccccn2)cc1	11µM*	-14%	-105%	14µM*	?	.	1.4µM*	.
Cc1ccc(N2CCN(C(=O)N3CCCC3)CC2)cc1Cl	-7%	-13%	-35%	-26%	-4%	1%	-37%[14.3 µM]	8.8%
CCN(CCCNC(=O)c1ccc(Sc2ccc(F)cc2)c(NC(C)=O)c1)c1ccccc1	.	.	.	-4%	.	11%	-17%[46.1 µM]	0.0%
COc1ccc(NCc2nc3ccccc3n2CCOc2ccc(C)cc2)cc1	?	-122%	?	?	?	2%&4%	?	-10.0%&-6.6%
CCCc1nnc(NC(=O)c2c(O)c3c([nH]c2=O)CCCC3)s1	?	1%	-6%	-2%	27%[3.69 µM]	-5%	-17%	0.5%
CCOCCCn1c(=S)[nH]c2cc(C(=O)NCCOC)ccc2c1=O	13%	4%	6%	-10%	-10%	-4%	2%	-0.4%
COc1cc2c(cc1OC)C(CC#N)=NC(C)(C)C2	-16%	-13%	26%	-15%	-1%	2%	0%	-5.3%
O=C(Cc1ccccc1)c1ccc(Cl)cc1	?	0%	3%	0%	0%	.	-34%	.
Cc1onc(-c2c(F)cccc2Cl)c1C(=O)NC(C)c1ccccc1 (configuration not stated)	-8%[46.1 µM]	-12%	1%	-7%	9%	.	.	.
Cc1cccc(NC(=O)Nc2cnccn2)c1	.	-2%	3%	19%	7%	.	.	.
CCCOC1(C(F)(F)F)NC(=O)N(c2cccc(Cl)c2)C1=O (configuration not stated)	-12%[46.1 µM]	.	.	9%	.	-2%	11%[46.1 µM]	-6.7%
CCCN1C(C(=O)c2ccccc2)=C(OC(=O)c2ccc(C)cc2)c2ccccc2S1(=O)=O	-6%[46.1 µM]	.	.	-13%	.	?	?	-4.5%
CCOc1ccc(N2C(=O)S/C(=C\c3cc(OC)c(OC)c(OC)c3)C2=O)cc1	-17%[46.1 µM]	0%	-3%	?	3%	.	2%[46.1 µM]	.

Next part
SMILES	Marburg entry inh	SARS PLP yeast	NS1 function inh	2A StopGo	RE007 growth inh	Cruzain inh noDet	LASV entry inh	Cruzain inh Det
CCC(=O)N1CCN(c2ccc(NC(=S)NC(=O)c3cc4ccccc4o3)cc2)CC1	3%	-1%	7%	?	-9%	.	-14%	.
Cc1cccc2cc(CN(CC3CCCO3)C(=O)c3cccnc3)c3nnnn3c12 (configuration not stated)	12%	-3%	-11%	6%	-1%	2%	6%	-4.3%
CC(=O)Nc1ccc(S(=O)(=O)N(CCc2ccccc2)CC(=O)N/N=C/c2ccc(C(=O)O)cc2)cc1	.	1%	13%	9%	-4%	.	.	.
COc1ccccc1N1CC(C)C(=O)NC1=S (configuration not stated)	-4%	12%	5%	-10%	10%	4%	20%	1.9%
COc1cccc(NC(=O)COc2ccccc2)c1	.	-4%	-14%	62%[activator]	17%	.	.	.
COc1ccc(C(=O)NC(=S)Nc2ccccc2[N+](=O)[O-])cc1OC	?	0%	3%	-11%	3%	.	7%	.
Cc1ccc(NS(=O)(=O)c2ccc(C(=O)OCC(=O)NCC3CCCO3)cc2)cc1 (configuration not stated)	4%	2%	.	11%	6%	.	?	.
Cc1cc(=O)[nH]c2nnc(SCC(=O)N3CC(C)OC(C)C3)n12 (configuration not stated)	-4%[46.1 µM]	-3%	.	-5%	23%	.	-21%	.
Cc1c(NC(=O)C2(c3ccccc3)CCCC2)c(=O)n(-c2ccccc2)n1C	1%[46.1 µM]	-1%	-4%	2%	12%	11%	?	1.0%
COc1cc(CC(=O)Nc2cccc(C(F)(F)F)c2)cc(OC)c1OC	?	-11%	1%	?	-17%	25%	-15%	-6.9%
COc1ccc(/C=C(\NC(=O)c2ccc([N+](=O)[O-])cc2)C(=O)NCCN2CCOCC2)cc1	3%[46.1 µM]	2%	6%	4%	20%	.	.	.
CCCCCCCCn1c(=O)c(C(=O)OCC)c(O)c2ccccc21	?	-24%	-2%	0%	25%	-9%	0%	-13%
CC(=O)Nc1ccc(-c2csc(NC(=O)C3CCN(S(=O)(=O)c4cccs4)CC3)n2)cc1	?	8%	13µM*	?	12%	?	?	-4.4%

Screening data from PubChem BioAssay.
